Screens as filed in PubChem.
N370S GC = inhibits or activates N370S mutant glucocerebrosidase. P04062. N370S GC spleen homogenate, 4MU-glucoside fluorescence. Potency, µM (top dose mostly 59.4 µM), inactives show top-dose activity change, negative = inhibition, actives largely listed as inhibitors. hit rate 0.092% among 330,000;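 also: 0% = full enzyme activity and -100% = no enzyme basal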
TDP1 inh = inhibitors of human tyrosyl-DNA phosphodiesterase TDP1; Q9NUW8; hit rate 0.28% among 350,000; recombinant TDP1, AlphaScreen DNA substrate cleavage; Potency, µM (doses to about 130 µM), for inactives: at the highest dose activity change, negative = inhibition, actives largely listed as inhibitors; also: nearly all actives have a fitted effect of over 40% in size
Target sequence (Q9NUW8 whole entry, looked up): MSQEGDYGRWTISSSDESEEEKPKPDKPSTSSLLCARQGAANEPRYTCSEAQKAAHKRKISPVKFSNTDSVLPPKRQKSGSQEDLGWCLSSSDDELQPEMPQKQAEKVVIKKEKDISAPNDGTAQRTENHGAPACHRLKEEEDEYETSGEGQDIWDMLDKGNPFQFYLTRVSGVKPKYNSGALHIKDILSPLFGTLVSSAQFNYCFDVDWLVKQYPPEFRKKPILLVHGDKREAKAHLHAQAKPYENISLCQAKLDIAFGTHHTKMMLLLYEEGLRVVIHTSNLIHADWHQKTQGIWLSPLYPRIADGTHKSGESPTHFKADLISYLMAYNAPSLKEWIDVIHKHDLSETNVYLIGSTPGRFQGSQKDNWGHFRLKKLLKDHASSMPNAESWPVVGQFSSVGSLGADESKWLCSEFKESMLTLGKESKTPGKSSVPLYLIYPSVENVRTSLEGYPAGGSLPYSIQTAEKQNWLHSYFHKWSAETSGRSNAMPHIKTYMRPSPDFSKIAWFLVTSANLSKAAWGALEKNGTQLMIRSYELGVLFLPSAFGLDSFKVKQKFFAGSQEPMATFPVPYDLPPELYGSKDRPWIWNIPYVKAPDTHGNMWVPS
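E. coli-derived human Tdp1, 1 nM final. Cpd preinc 15 min RT; substrate 15 nM final, 5 min RT; AS bead mix 10 ug/ml final, 10 min RT. Signal loss = tyrosine-FITC cleavage. No-enzyme wells = max signal.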
An asterisk follows results filed as active; u = inconclusive; x = not tested or not shown; [ ] = remark or other dose. Calls follow the shape of the dose curve; as a rule, active = well fitted curve in the direction sought with a large enough effect; inconclusive = small, poorly fitted or top-dose-only effect, or another doubt; inactive = no such curve, though single readings can be large; an effect the other way counts as inactive or inconclusive. Unless noted, % is scaled to controls: 0 for no effect and ±100 for the full control effect; potency is read from the fitted curve at half-maximal effect.

Every second line gives: N370S GC | TDP1 inh
- COc1ccccc1N(Cc1ccccc1)S(=O)(=O)c1cc(C(=O)O)ccc1Cl
  4% | -3%
- O=C(NC1CCCC1)C(c1cccnc1)N(Cc1ccc(F)cc1)C(=O)c1csnn1 (centres undefined)
  -1% | 3%[0.0935 µM]
- CC(C)(C)[C@@H]1C=C(C(=O)O)O[C@H](OCc2ccc(CO)cc2)C1
  0% | 6%
- Cc1onc(-c2ccccc2Cl)c1C(=O)OCC(=O)c1ccc2c(c1)OCCO2
  -9% | 4%
- CC(=O)c1cc(-c2ccccc2)[nH]c1N1CCOCC1
  0% | -2%
- CN(C(=O)COc1ccc(Cl)cc1)C1(C)CCS(=O)(=O)C1 (centres undefined)
  -15% | 4%[0.505 µM]
- Cc1cc(Br)ccc1NC(=O)C1C2CCC(O2)C1C(=O)O (centres undefined)
  5% | 6%
- O=C(Nc1ccc(Br)cc1)Nc1ccccc1Cl
  -12% | -6%
- C/C=C(\C)C(=O)Nc1cccc(C2=NOC3(C2)C[C@H](C(N)=O)N(C(=O)c2cc([N+](=O)[O-])cc([N+](=O)[O-])c2)C3)c1 (some centres undefined)
  -5% | 7%
- CC(=O)N(Cc1cc2cc(C)ccc2[nH]c1=O)c1cccc(C)c1C
  5% | x
- O=C(O)c1ccccc1-c1nc2ccccc2[nH]1
  7% | 0%
- O=C(O)c1ccc(Cl)c(S(=O)(=O)Nc2cccc(C(=O)Nc3cccc(C(F)(F)F)c3)c2)c1
  8% | 0%
- c1ccn2cc(-c3ccc4c(c3)OCO4)cc2c1
  15% | 3%
- Cc1ccc2c(c1)N(C(=O)CCC(=O)NCc1ccccn1)CC(C)O2 (centres undefined)
  2% | x
- O=C(NCCc1c[nH]c2ccccc12)/C(=C\c1cccs1)NC(=O)c1ccccc1
  3% | 5%
- Cc1nc2nc(NC(=O)c3ccco3)nn2c(C)c1Cl
  -5% | 2%
- C/C(=N\NC(=O)c1c(Cl)cnn1C)c1cccc(NC(=O)COc2ccccc2)c1
  4% | 5%
- O=C(CSC1=NCCN1)C1COc2ccccc2O1 (centres undefined)
  3% | -4%
- CC(=O)Nc1ccc(NC(=O)C2CCN(c3c(NC(C)=O)c(C)nn3-c3ccccc3)CC2)cc1
  x | 8%
- COC(=O)c1c(SCC(=O)NC2CCCCC2)[nH]c2ccccc2c1=O
  -21% | x
- c1ccc(-c2ccccc2OCCN2CCOCC2)cc1
  2% | -4%
- O=C(CNC(=O)C1COc2ccccc2O1)Nc1cc(Cl)ccc1Cl (centres undefined)
  2% | 4%
- CCOc1ccc(N(CC)S(=O)(=O)c2cccc3nsnc23)cc1
  -5% | x
- CC(C)c1ccc(NC(=O)CN2CCN(C(=O)C3CCCO3)CC2)cc1 (centres undefined)
  -3% | 5%
- O=[N+]([O-])c1ccccc1/C=N/OCc1ccccc1
  4% | 6%
- C(=C\c1nc(-c2ccncc2)no1)/c1ccccc1
  -28% | -3%
- CCCc1nnc(NC(=O)CCS(=O)(=O)c2ccccc2)s1
  1% | -13%
- CCOC(=O)/C=c1\s/c(=C(\C#N)C(=O)NC)n(-c2ccccc2)c1=O
  1% | -2%
- O=C(c1ccc(F)cc1)N(Cc1ccccc1)C1CCS(=O)(=O)C1 (centres undefined)
  -6% | 4%
- CCOC(=O)Cn1nc(C)c(NC(=O)c2ccc([N+](=O)[O-])c(C)c2)c1C
  -4% | -3%

Complete entries from above. Screens in order: N370S GC, TDP1 inh
Cc1onc(-c2ccccc2Cl)c1C(=O)OCC(=O)c1ccc2c(c1)OCCO2 in the list: -9%, 4%
O=C(Nc1ccc(Br)cc1)Nc1ccccc1Cl in the list: -12%, -6%

Nothing new here: entries from further up.
Every second line gives: N370S GC | TDP1 inh
- COc1ccccc1N(Cc1ccccc1)S(=O)(=O)c1cc(C(=O)O)ccc1Cl
  4% | -3%
- O=C(NC1CCCC1)C(c1cccnc1)N(Cc1ccc(F)cc1)C(=O)c1csnn1 (centres undefined)
  -1% | 3%[0.0935 µM]
- CC(C)(C)[C@@H]1C=C(C(=O)O)O[C@H](OCc2ccc(CO)cc2)C1
  0% | 6%
- Cc1onc(-c2ccccc2Cl)c1C(=O)OCC(=O)c1ccc2c(c1)OCCO2
  -9% | 4%
- CC(=O)c1cc(-c2ccccc2)[nH]c1N1CCOCC1
  0% | -2%

Taken from above:
TDP1 inh, O=[N+]([O-])c1ccccc1/C=N/OCc1ccccc1 stands at 6%
N370S GC, Cc1cc(Br)ccc1NC(=O)C1C2CCC(O2)C1C(=O)O (centres undefined) stands at 5%
N370S GC, O=C(CSC1=NCCN1)C1COc2ccccc2O1 (centres undefined) stands at 3%

The listing continues.
Every second line gives: N370S GC | TDP1 inh
- CCOC(=O)c1c(C)oc2ccc(O)c(CN3CCCCC3)c12
  0% | 3%
- CCS(=O)(=O)N1CCC(C(=O)NCCC2=CCCCC2)CC1
  2% | -2%
- Clc1cccc(Nc2nc(N3CCOCC3)nc(N3CCOCC3)n2)c1
  -2% | 9%
- CC1(C)OC(=O)C(=CNn2cnc3ccccc3c2=O)C(=O)O1
  -7% | 1%
- O=[N+]([O-])c1cc(-n2cnnn2)ccc1N1CCC(Cc2ccccc2)CC1
  18% | 11%
- CCc1ccc2c(c1)c(=O)c(S(=O)(=O)c1ccc(F)cc1)cn2CC(=O)Nc1ccccc1OC
  x | 9%
- CCc1ccc2oc(-c3cc(N)ccc3O)nc2c1
  -22% | 8%
- CC1CN(Cc2nc3c(c(=O)n(C)c(=O)n3C)n2CC(=O)c2ccccc2)CC(C)O1 (centres undefined)
  9% | 3%
- COc1ccc(CC(=O)OCc2cc3ccccc3[nH]c2=O)cc1
  -6% | -2%
- O=C(c1ccc(F)cc1)N1CCOCC1
  0% | -3%
- O=C(CN1C(=O)/C(=C\c2cccs2)SC1=S)Nc1cccc(C(=O)O)c1
  -11% | 11%
- CCCCn1c(N)c(N(CCC(C)C)C(=O)c2[nH]c(C)c(C(=O)OCC)c2C)c(=O)[nH]c1=O
  -3% | -10%
- OC1(CN2CCOCC2)C2CN3CCN(C2)CC1(c1ccccc1)C3 (centres undefined)
  -8% | 5%
- CC(=O)Nc1ccc(S(=O)(=O)NCCC(=O)Nc2ncccc2C)cc1
  0% | x
- Cc1nc2sccn2c(=O)c1S(=O)(=O)N1CCN(c2cccc(C(F)(F)F)c2)CC1
  -8% | -3%
- CC(=O)N1c2ccc3ccccc3c2C(C)CC12CCCCC2 (centres undefined)
  9% | 2%
- CCc1ccc(-c2cc(C(=O)N/N=C/c3ccccn3)[nH]n2)cc1
  13% | 11%
- CCCN(CCC)S(=O)(=O)c1ccc(C(=O)Nc2nnc(-c3cc(OC)cc(OC)c3)o2)cc1
  1% | 7%
- Cc1ccc(C(=O)CSC2=C(C#N)C(c3ccco3)C3=C(CC(C)(C)CC3=O)N2)cc1 (centres undefined)
  u | 4%
- Cc1ncc(CSc2nc3ccccc3[nH]2)c(N)n1
  -28% | 8%
- COc1ccc(N2C(=O)CC(N3CCN(c4ccccc4F)CC3)C2=O)cc1 (centres undefined)
  4% | 1%
- COC(=O)c1sccc1NC(=S)N1CCC(C(N)=O)CC1
  1% | 5%
- O=C1CCC([N+](=O)[O-])C(c2ccc(F)c(Br)c2)N1 (centres undefined)
  -17% | x
- O=C(C1CCCCC1)N1CCC(c2nc3ccccc3[nH]2)CC1
  7% | -5%
- C=CCNC(=O)c1onc(CSc2cccc(Cl)c2)c1C(=O)O
  x | 1%
- CC(C)[C@H](N)C(=O)N1CCC(C(=O)N[C@@H](Cc2ccccc2)C(=O)NCc2ccc(F)cc2)CC1
  -8% | 2%
- CC(C)CC(c1nnnn1Cc1ccccc1)N1CCC(C(N)=O)CC1 (centres undefined)
  -5% | 0%
- COc1ccccc1CNC(=O)CCCC(=O)n1ncc2cc(C)ccc21
  0% | x
- Cc1cc(=O)oc2c3c(cc(OCC(=O)NC4CC4)c12)OC(C)(C)CC3
  9% | x
- S=C(NN=C1CCCCCC1)Nc1ccc(Cl)cc1
  1% | 5%

> CCOC(=O)c1[nH]c2ccccc2c1NC(=O)c1ccc(S(=O)(=O)N2CCCCC2)cc1
  N370S GC: 5% | TDP1 inh: -1%
> Cc1ccc2c(c1)c(-c1csc(N)n1)c(C)n2C
  N370S GC: -7% | TDP1 inh: x
> Cc1cccc(OCCCn2c(=O)sc3ccccc32)c1
  N370S GC: 5% | TDP1 inh: -14%
> CCOC(=O)c1cnc(SCC(=O)Nc2cc(C(F)(F)F)ccc2N2CCOCC2)nc1N
  N370S GC: 13% | TDP1 inh: 5%
> COc1ccc(-n2cc(-c3ccccc3)c3c(=S)nc[nH]c32)cc1
  N370S GC: -4% | TDP1 inh: 4%
> CN(c1ccccc1C(=O)NCc1ccco1)S(C)(=O)=O
  N370S GC: 9% | TDP1 inh: x
> CC(=O)NS(=O)(=O)c1ccc2c(c1)Cc1cc(S(=O)(=O)NC(C)=O)ccc1-2
  N370S GC: -4% | TDP1 inh: x
> CCOc1ccc(NC(=O)C(=O)N/N=C/c2ccccc2F)cc1
  N370S GC: 16% | TDP1 inh: 6%
> Cc1ccc2nc(NC(=O)CNS(=O)(=O)c3ccc(Br)s3)sc2c1
  N370S GC: -5% | TDP1 inh: 0%
> O=C(Nc1ccc(S(=O)(=O)Nc2nccs2)cc1)c1cccc(S(=O)(=O)N2CCOCC2)c1
  N370S GC: -3% | TDP1 inh: 6%
> COc1ccccc1NC(=O)/C(C#N)=C/c1ccc(OCCN2CCOCC2)c(OC)c1
  N370S GC: 2% | TDP1 inh: 3%
> CC(C)Oc1ccc(C(=O)Nc2nnc(SCC(=O)N3CCOCC3)s2)cc1
  N370S GC: 2% | TDP1 inh: 3%
> COc1cc2ccccc2cc1C(=O)Nc1ccccc1N1CCCC1
  N370S GC: u | TDP1 inh: -3%[0.505 µM]
> CS(=O)(=O)N(CC(=O)NCCSC1CCCCC1)c1ccccc1
  N370S GC: -2% | TDP1 inh: 0%
> CCCCC1(c2ccc(F)cc2)NC(=O)N(CC(=O)Nc2ccc(N3CCOCC3)cc2)C1=O (centres undefined)
  N370S GC: x | TDP1 inh: 3%

3 compounds out of the list, ordered by SMILES length, smallest number first.
> COC(=O)c1sccc1NC(=S)N1CCC(C(N)=O)CC1
  N370S GC: 1% | TDP1 inh: 5%
> C=CCNC(=O)c1onc(CSc2cccc(Cl)c2)c1C(=O)O
  N370S GC: x | TDP1 inh: 1%
> CC(C)(C)[C@@H]1C=C(C(=O)O)O[C@H](OCc2ccc(CO)cc2)C1
  N370S GC: 0% | TDP1 inh: 6%

(further entries)
> Cc1ccc(N2C(=O)N(CC(=O)Nc3ccc(C)c(C)c3[N+](=O)[O-])C(=O)C2C)cc1 (centres undefined)
  N370S GC: 18% | TDP1 inh: -1%
> CNC(=O)c1ccsc1NC(=O)C1CCCN1S(=O)(=O)c1cccs1 (centres undefined)
  N370S GC: -6% | TDP1 inh: -10%
> CCc1nc(SCC(=O)c2ccc(C)c(C)c2)n[nH]1
  N370S GC: -23% | TDP1 inh: 6%
> Cn1cccc1-c1cc(C(=O)N/N=C/c2ccc(F)cc2)[nH]n1
  N370S GC: -5% | TDP1 inh: -12%
> Nc1nonc1C(=O)NCCNCc1ccc(Cl)c(Cl)c1
  N370S GC: x | TDP1 inh: 5%
> COC(=O)CC(NS(=O)(=O)c1cccs1)c1ccc2c(c1)OCO2 (centres undefined)
  N370S GC: -5% | TDP1 inh: 2%
> O=C(O)CCCCCN=Cc1c(O)c2ccccc2oc1=O
  N370S GC: -10% | TDP1 inh: -4%
> COc1ccc(NC(=O)[C@@]2(CC(=O)O)CC(/C=C/c3ccccc3)=NO2)cc1
  N370S GC: -5% | TDP1 inh: x
> O=C(c1ccco1)N(Cc1cccc(Br)c1)C1CCS(=O)(=O)C1 (centres undefined)
  N370S GC: -1% | TDP1 inh: 1%
> Cc1nn(-c2ccccc2)c2c1/C(=N/O)CC(C)(C)C2
  N370S GC: -24% | TDP1 inh: 3%
> COc1ccc(CNC(=O)CN2CCN(c3ccccc3O)CC2)cc1OC
  N370S GC: -1% | TDP1 inh: x
> CC(C)n1c(Nn2cnnc2)nc2ccccc21
  N370S GC: -13% | TDP1 inh: 2%
> COC(=O)C1=C(CN2CCSCC2)NC(=O)NC1c1cc(C)ccc1C (centres undefined)
  N370S GC: 0% | TDP1 inh: 0%
> COc1cc(/C=N/NC(N)=O)ccc1OCC(=O)N1C(C)CCCC1C (centres undefined)
  N370S GC: -5% | TDP1 inh: -2%
> O=C(CSc1ncnc2sccc12)Nc1ccccc1F
  N370S GC: 19% | TDP1 inh: 0%

A portion of the library; most or all hits stand in other tables.
